# High-throughput results: PubChem BioAssay, several laboratories
# Bfl-1 A1 inh – inhibitors of the anti-apoptotic protein A1, read as caspase activation | MEF A1-2A-BIM cells, Caspase-Glo 3/7 luminescence, 3 h; percent of clofoctol response, vehicle zero | caspase activation, % (test concentration not listed) | 330,000 compounds, 0.066% hits;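 active = over half of replicate activation scores above 10%, or exactly half above 10 with the replicate mean above 10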;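 also: wells of about 30 µL received 50 nL stock; many hits fall short of the cut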
# MLL AF4-AF9 inh – MLL-AF4/AF9 protein interaction inhibition | inhibition, % at 10 µM | P42568 | 350,000 compounds, 0.47% hits | AlphaScreen, biotin-AF4 peptide binding to FLAG-AF9 | AID 651704;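 active = every replicate reaching a set inhibition limit, whatever the replicate mean, cut at about 25% in these data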;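 also: 0% = plate neutral control median and 100% = total signal loss; the record names both 10 and 1 µM as test concentration; the first replicate is given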
# Target sequence (P42568 whole entry, looked up): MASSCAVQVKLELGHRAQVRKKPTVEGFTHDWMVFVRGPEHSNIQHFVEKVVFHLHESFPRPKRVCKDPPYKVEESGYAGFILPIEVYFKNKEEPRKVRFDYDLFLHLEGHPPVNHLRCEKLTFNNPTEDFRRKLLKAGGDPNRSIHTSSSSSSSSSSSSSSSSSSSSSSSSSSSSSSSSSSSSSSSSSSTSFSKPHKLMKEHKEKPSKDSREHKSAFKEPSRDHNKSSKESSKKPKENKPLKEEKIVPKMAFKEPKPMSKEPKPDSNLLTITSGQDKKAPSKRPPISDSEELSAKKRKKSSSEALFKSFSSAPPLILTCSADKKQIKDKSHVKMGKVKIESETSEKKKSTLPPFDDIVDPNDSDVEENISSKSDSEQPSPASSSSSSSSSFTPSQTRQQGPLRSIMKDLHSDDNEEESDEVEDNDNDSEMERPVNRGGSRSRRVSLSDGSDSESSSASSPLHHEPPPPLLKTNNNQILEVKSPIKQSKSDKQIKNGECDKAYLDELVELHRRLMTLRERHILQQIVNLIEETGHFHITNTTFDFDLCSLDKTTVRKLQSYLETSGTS
# T cruzi repl – blocks replication of Trypanosoma cruzi | inhibition, % (no concentration beside the values) | T. cruzi beta-gal in NIH3T3, luminescence, 90 h | 300,000 compounds, 1.4% hits;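 active = mean inhibition across valid replicates above about 55%, limit read from the data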;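 also: signal also drops with host cell toxicity which is not excluded here; 0% = plate median of DMSO wells and 100% = zero luminescence signal; higher percent means less beta-gal luminescence so fewer parasites; stock transfer was 50 nL into about 50 µL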
# FGF22 binding – shifts melting point of recombinant human FGF22. calls only at 9.99 µM. recombinant FGF22 thermal shift, SYPRO orange fluorescence; percent of sucrose octasulfate shift, DMSO zero. 340,000 compounds, 1.5% hits. AID 651658. Q9HCT0;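 active = melting point raised past a set limit in the mean and every replicate; three in four hits are not shown here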
# Target sequence (Q9HCT0 whole entry, looked up): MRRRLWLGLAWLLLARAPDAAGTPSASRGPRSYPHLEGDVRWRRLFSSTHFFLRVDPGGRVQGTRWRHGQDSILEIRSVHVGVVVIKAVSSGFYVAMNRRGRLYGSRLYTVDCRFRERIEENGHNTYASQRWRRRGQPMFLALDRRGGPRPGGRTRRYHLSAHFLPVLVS
# Beta cell apopt – beta cell apoptosis inhibition; INS-1E cytokine-induced death, ATP luminescence, 48 h; percent of positive-control rescue, neutral wells zero; protection from apoptosis, % (test concentration not listed); 300,000 compounds, 0.8% hits; AID 435005;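 active = all replicates at 75% or more, or half of them and the mean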;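 also: 0% = cytokine-treated negative control wells and 100% = positive control rescue; higher means more ATP so stronger rescue from cytokine killing; wells of about 40 µL received 100 nL stock; the first replicate is given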
# E coli growth – inhibitors of Escherichia coli growth. 330,000 compounds, 0.21% hits. OD600 absorbance (no concentration beside the values). OD600, 23 h; hits give low values;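 active = OD600 absorbance below the run mean of sample wells minus 3.6 SD, in any replicate, cut at about 0.56 in these data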;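 also: stock transfer was 300 nL into about 60 µL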
# UCH37 DUB inh – human UCH37 deubiquitinating enzyme inhibition; inhibition, % (test concentration not listed); purified proteasome/UCH37, Ub-AMC cleavage fluorescence; 330,000 compounds, 0.33% hits; Q9Y5K5;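 active = mean of two replicates above 20%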;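 also: 0% = compound-free wells with enzyme and 100% = wells lacking proteasome; stock transfer was 100 nL into about 20 µL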
# Target sequence (Q9Y5K5 whole entry, looked up): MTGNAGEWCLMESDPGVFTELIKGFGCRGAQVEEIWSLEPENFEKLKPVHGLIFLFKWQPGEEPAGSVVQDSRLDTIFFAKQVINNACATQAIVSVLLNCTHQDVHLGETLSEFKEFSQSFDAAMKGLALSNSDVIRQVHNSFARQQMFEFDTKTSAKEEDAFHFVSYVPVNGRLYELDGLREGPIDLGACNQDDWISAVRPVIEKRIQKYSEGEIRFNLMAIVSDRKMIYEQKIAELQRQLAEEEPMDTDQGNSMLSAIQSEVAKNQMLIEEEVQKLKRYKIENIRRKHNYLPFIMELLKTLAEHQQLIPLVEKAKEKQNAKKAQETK
#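 Schedule: 30 min plus 25 min, room temperature / Material: human UCH37 within purified proteasomes / Technique: AMC fluorescence intensity at 355/460 nm / Buffer or medium: pH 7.4 Tris-HCl (50 mM) with ovalbumin, ATP-MgCl2, DTT / Controls: wells without proteasome as full block, compound-free enzyme plus substrate as uninhibited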
# Ecoli rRNA inh – selective bacterial rRNA inhibition in E. coli | AID 720706 | GFP signal change (wild-type ribosome), % (test concentration not listed) | 350,000 compounds, 1.6% hits | E. coli WT GFP vs humanized-ribosome RFP mutants, fluorescence, 24 h; hits give low values; DMSO median 0, no signal -100;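 active = significant combined selectivity score with lowered wild-type GFP, culture density cut under 30%, mutant RFP and density less affected; inactive = any of these conditions unmet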; also: one replicate is shown; some compounds called inactive have numbers as strong as hits
# Ecoli rRNA inh OD600 – second read-out of Ecoli rRNA inh, no call of its own (marks repeat the call); OD600 change, %; measured here: OD600 growth;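 optical density of the mix in the first replicate; 0 = DMSO median and -100 = no signal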
# Ecoli rRNA inh RFP – recorded beside Ecoli rRNA inh, whose call it bears; RFP signal change, %; measured here: RFP humanized mutant strains;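 first replicate; 0 = DMSO median and -100 = no signal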
# * hit, by the source's call; i = inactive; / = no result given; & = joins results of further samples.
SMILES,Bfl-1 A1 inh,MLL AF4-AF9 inh,T cruzi repl,FGF22 binding,Beta cell apopt,E coli growth,UCH37 DUB inh,Ecoli rRNA inh,Ecoli rRNA inh OD600,Ecoli rRNA inh RFP
CCNC(=O)CC1C(=O)N(CC)C(=S)N1NC(=O)c1ccc(Cl)cc1 (centres undefined),0.9,/,-22,/,-11,0.66,2.0,/,/,/
Cc1ccc(Cl)cc1NC(=O)COC(=O)CC1CC2CCC1C2 (centres undefined),0.0,/,-6,/,-6,0.71,4.6,/,/,/
CCN(CCCNC(=O)CCCCn1c(=O)[nH]c2ccccc2c1=O)c1ccccc1,-0.1,/,-1,/,-1,0.72,1.0,/,/,/
O=C(Nc1nnc(-c2ccc3c(c2)CCCC3)o1)C1CCCCC1,/,1.0,-7,i,/,0.74,5.1,-46,-56,-9.2
O=C(CN1CCN(C/C=C/c2ccccc2)CC1)NCc1ccccc1,-0.9,1.8,19,i,-8,0.65,6.8,8,3,1.2
CCCc1cc(=O)oc2cc(C)cc(OC(C)C(=O)NCCN3CCOCC3)c12 (centres undefined),0.6,-0.6,-10,i,2,0.7,-79,-1,8,-1.7
COC(=O)C1CN(C(=O)C(C)Oc2cccc(C)c2C)c2ccccc2O1 (centres undefined),0.2,-0.1,-18,i,-4,0.62,2.3,-8,-8,7.7
CC1CCN(c2ccc(NC(=S)NC(=O)c3ccc(-c4cccc([N+](=O)[O-])c4)o3)cc2)CC1,-1.1,/,28,/,2,0.73,6.8,/,/,/
CC1CC(C)CN(C(=O)COC(=O)CNC(=O)C23CC4CC(CC(C4)C2)C3)C1 (centres undefined),0.2,-1.1,-16,i,-4,0.69,1.8,-3,-2,-1.4
O=C(NCc1cccc(Cl)c1)N1CCN(S(=O)(=O)c2ccccc2F)CC1,1.6,2.2,7,i,1,0.65,1.4,-6,-9,4.4
CCOc1ccc(NC(=S)NC(=O)c2cccnc2)c([N+](=O)[O-])c1,0.6,-1.9,11,i,-4,0.68,4.6,-4,-4,5.1
CC(=O)c1ccn(S(=O)(=O)c2ccccc2)c1,-0.1,4.4,-14,i,-3,0.72,-1.4,/,/,/
c1ccc(Cn2nnnc2C(c2ccncc2)N2CCOCC2)cc1 (centres undefined),0.1,-8.5,-3,i,-7,0.7,6.4,15,5,0.4
Cc1cc(S(=O)(=O)NCc2ccccc2)ccc1OCC(=O)N1CCCC1,0.0,-3.4,2,i,1,0.69,6.8,-4,-16,-2.0
Cc1nnc(Oc2ccccc2)c2ccccc12,0.6,/,-6,/,-6,0.72,3.3,/,/,/
COc1ccc(/C=C/C(=O)NC(=S)N2CCN(c3ccccc3OC)CC2)cc1,-0.2,-1.0,-9,i,-6,0.68,6.9,/,/,/
O=C(COc1ccccc1[N+](=O)[O-])OCCCOC(=O)COc1ccccc1[N+](=O)[O-],0.6,0.2,-4,i,-3,0.64,2.8,20,16,0.6
Cc1cccc(N2CCN(C(=O)Cn3nc(Cc4ccncc4)c4ccccc4c3=O)CC2)c1C,-0.2,0.9,41,i,-3,0.7,-0.3,-16,-46,14
CC(=O)N1c2ccc(N=Cc3cc(Br)cc(Br)c3O)cc2CC1C (centres undefined),-0.1,/,-9,/,2,0.63,2.0,/,/,/
COc1ccc(C=O)cc1C1=CC(=O)C[C@H](c2ccc(Cl)cc2)C1,0.5,2.8,/,i,-5,/,0.5,-14,-25,-6.4
CC(C)CCNC(=O)C(C)N(C(=O)c1snc(C(N)=O)c1N)c1cnc2ccccc2c1 (centres undefined),-0.4,5.5,12,i,/,0.69,-14,1,-6,0.5
O=[N+]([O-])c1cc(F)c(N2CCCCC2)cc1N1CCOCC1,0.7,/,11,/,-1,0.73,7.1,/,/,/
CCCCNC(=S)Nc1ccc2nc3n(c(=O)c2c1)CCCCC3,0.1,0.4,-5,i,-7,/,1.6,-5,-2,4.8
O=c1cc2c(nn1Cc1ccccc1Cl)-c1ccccc1CC2,-0.1,/,6,/,-12,0.75,-1.4,/,/,/
O=[N+]([O-])c1ccc([N+](=O)[O-])c(Nc2ccc(N3CCOCC3)cc2)c1,0.8,0.1,4,i,-12,0.63,8.1,10,13,5.8
CCc1ccc(S(=O)(=O)Nc2ccc(-c3ccc4nnc(C)n4n3)cc2)s1,-0.1,1.1,/,i,0,0.67,4.0,6,16,-0.5
CN(C)C(CNC(=O)CCS(=O)(=O)c1ccccc1)c1ccccc1 (centres undefined),1.2,-0.8,4,i,-9,0.67,-3.0,8,10,5.0
CCCCCC(=O)Nc1nc(C)c(-c2csc(Nc3ccc(Cl)cc3)n2)s1,1.6,/,21,/,1,0.72,1.8,/,/,/
O=C(O)CC(NC(=O)OCc1ccccc1)c1ccccc1 (centres undefined),0.3,/,-17,/,-2,0.73,-2.2,/,/,/
O=C(Cc1ccccc1)N(c1ccc(F)cc1)C1C=CS(=O)(=O)C1 (centres undefined),-1.0,-9.3,-19,/,-8,0.65,4.7,-1&0,-5&2,11&0.9
CC(C)(C)CN1CCNC(=O)C1CC(=O)N1CCOc2ccccc2C1 (centres undefined),-0.2,-1.5,-12,i,-4,0.66,-8.7,6,2,2.3
CCN1C(=O)c2ccc(C(=O)Nc3c(C)cc(C)cc3C)cc2C1=O,-0.5,-3.6,-2,i,/,0.71,4.6,6,12,-1.2
CC(=NO)C1CCC2C3CCC4=CC(=NO)CCC4(C)C3C(O)CC12C (centres undefined),/,2.1,/,i,/,0.68,1.7,-30,-54,-12
COc1ccccc1N1CCN(c2ncnc3c2oc2ccccc23)CC1,0.2,/,-4,/,34,0.69,-3.3,/,/,/
O=C(O)CCn1cc(/C=N/O)c(-c2cccc([N+](=O)[O-])c2)n1,1.4,7.5,-17,/,-4,/,/,15,2,-0.1
CC(C)CNC(=O)c1cccc(NC(=O)Cc2ccc(Br)cc2)c1,-0.5,/,7,/,-5,0.66,1.5,/,/,/
CCC(C(=O)NC(C)c1ccccc1)C(=O)NC(C)c1ccccc1 (centres undefined),1.3,-1.9,17,i,-1,0.69,4.0,9,12,0.1
CCOc1ccc(NC(=O)CCS(=O)(=O)c2ccc(Br)cc2)cc1,0.0,-4.8,10,i,2,0.69,0.8,2,8,-3.1
COc1ccc(N2C(=O)CCC(C(C)=O)=C2C)cc1,-0.5,/,-13,/,-7,0.67,2.6,/,/,/
C=CCNC(=S)N1CCC(C(=O)c2ccc(C)cc2)CC1,0.4,-1.8,-17,i,/,0.67,3.4,-4,-5,0.6
CC1CCCCC1NC(=O)COc1cccnc1[N+](=O)[O-] (centres undefined),0.5,-2.8,/,i,-4,0.68,2.1,8,27,0.8
O=C(NC1CCCC1)C(c1cccnc1)N(CCc1ccccc1)C(=O)c1ccco1 (centres undefined),-0.4,2.2,5,i,3,0.69,1.5,-1,2,3.6
Cc1ccc(NC2c3ncccc3C(=O)N2C2CCCCC2)cc1C (centres undefined),0.0,/,-11,/,-2,0.69,6.2,/,/,/
CN(CC(=O)Nc1ccccc1Br)C(=O)CCCSc1nc2ccccc2[nH]1,0.1,10,-9,i,-4,0.67,5.8,-4,-20,-3.1
Nc1ccc(Oc2ccc([N+](=O)[O-])cc2[N+](=O)[O-])cc1,-0.5,7.3,12,i,7,0.69,5.0,-17,-10,17
CC(C)(C)NC(=O)/C(=C\c1ccco1)NC(=O)c1cccs1,-0.2,-4.4,10,i,-6,0.64,3.1,-3,15,1.3
CCOc1ccc(C(=O)/C=C/c2ccc(SC)cc2)cc1,1.7,2.9,-1,i,-5,0.71,1.0,-8,-3,-8.3
CCOc1ccc(NS(=O)(=O)c2cc(NC(=O)c3cccc(C)c3)ccc2Cl)cc1,1.7,/,52,/,2,0.73,3.3,/,/,/
CC1CCC(NC(=O)CN2CCN(S(=O)(=O)c3cccs3)CC2)CC1 (centres undefined),-1.3,-2.3,/,i,-8,0.65,-1.0,/,/,/
O=C(c1ccco1)N1CCN(Cc2nnc(-c3ccccc3)o2)CC1,-1.1,0.1,4,i,-4,0.7,2.4,2,7,-1.8
# Other compounds follow:
SMILES,Bfl-1 A1 inh,MLL AF4-AF9 inh,T cruzi repl,FGF22 binding,Beta cell apopt,E coli growth,UCH37 DUB inh,Ecoli rRNA inh,Ecoli rRNA inh OD600,Ecoli rRNA inh RFP
C=CCn1c(=O)c2c(nc3n2CC(C)CN3Cc2ccccc2)n(C)c1=O (centres undefined),0.3,5.0,6,i,4,0.69,7.1,-8,-4,1.0
COc1cc(C(=O)O)c2c(c1C)OC(=O)c1c(C)cc(O)c(C=O)c1O2,-1.8,/,-5,/,-2,0.74,3.9,/,/,/
CCOC(=O)c1csc(NC(=O)c2cc(OC)c(OC)c(OC)c2)n1,0.3,/,-1,/,-1,0.7,4.1,/,/,/
O=c1cc(O)nc(SCc2ccccc2)[nH]1,0.3,/,-7,/,-10,0.74,2.8,/,/,/
Cc1ccc(C)c2sc(N3CCN(C(=O)c4ccc([N+](=O)[O-])o4)CC3)nc12,0.7,1.4,51,i,19,0.6,2.6,11,10,1.0
COC(=O)N/N=C/c1ccccc1OCc1ccccc1,0.3,-3.0,4,i,-7,/,/,1,-1,6.1
Cc1cc2c(C)nc(N/N=C/c3ccc(F)cc3)nc2o1,0.9,-13,11,i,-7,/,/,-4,6,1.0
O=C(Oc1cc(=O)n2ccccc2n1)c1ccccc1,-0.1,-1.3,-8,i,-4,0.67,0.4,6,9,-2.4
Cc1ccc(-n2c(P(C)(=O)O)nc3ccccc32)cc1,-0.5,-3.6,-4,i,0,0.72,-2.2,3,-2,0.6
CC(=O)Nc1ccc(N2CCCCC2)c(C(=O)Nc2cccc(C)c2)c1,0.8,/,12,/,-1,0.72,-3.6,/,/,/

# Retrieved one by one from the entries so far (six):
SMILES,Bfl-1 A1 inh,MLL AF4-AF9 inh,T cruzi repl,FGF22 binding,Beta cell apopt,E coli growth,UCH37 DUB inh,Ecoli rRNA inh,Ecoli rRNA inh OD600,Ecoli rRNA inh RFP
CCOC(=O)c1csc(NC(=O)c2cc(OC)c(OC)c(OC)c2)n1,0.3,/,-1,/,-1,0.7,4.1,/,/,/
Cc1ccc(C)c2sc(N3CCN(C(=O)c4ccc([N+](=O)[O-])o4)CC3)nc12,0.7,1.4,51,i,19,0.6,2.6,11,10,1.0
C=CCn1c(=O)c2c(nc3n2CC(C)CN3Cc2ccccc2)n(C)c1=O (centres undefined),0.3,5.0,6,i,4,0.69,7.1,-8,-4,1.0
Cc1ccc(-n2c(P(C)(=O)O)nc3ccccc32)cc1,-0.5,-3.6,-4,i,0,0.72,-2.2,3,-2,0.6
O=c1cc(O)nc(SCc2ccccc2)[nH]1,0.3,/,-7,/,-10,0.74,2.8,/,/,/
CC(=O)Nc1ccc(N2CCCCC2)c(C(=O)Nc2cccc(C)c2)c1,0.8,/,12,/,-1,0.72,-3.6,/,/,/

# Only part of the results is shown, so the mix of outcomes need not match the whole.
